FPR: FPR binders displacing fluorescent formyl peptide, primary screen, U937-FPR cells, fMLFK-FITC, flow cytometry (AID 362); fMet-Leu-Phe receptor (Homo sapiens); U937-FPR cells, fMLFK-FITC displacement, flow cytometry; hits give high values; test concentration not given here; most inactive calls were filed without a number and no value below 0 was filed; inhibition, %; 1% of 4,300 active;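 active = inhibition of labelled peptide binding to the formyl peptide receptor of at least 65%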;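 also: plate controls were buffer control wells for no effect and unlabeled fMLFF blocking peptide for full effect; higher means less cell fluorescence so more probe displaced; part of the set was picked by virtual screening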
* = called active by the depositor; i = inactive.

The opening twelve compounds, to show the layout:
O=C(c1cnccn1)N(Cc1ccco1)C1(C(=O)NC2CCCCC2)CCCCC1
  FPR = i
N=c1c(C(=O)NCc2ccco2)cc2c(=O)n3ccccc3nc2n1C1CCCCC1
  FPR = i
O=C(c1cccc(O)c1)N1N=C2CCCCC2C1(O)C(F)(F)F (centres undefined)
  FPR = i
CCCOc1ccc(C2C(C(=O)OC3CCCCC3)=C(C)NC3=C2C(=O)CC(c2ccccc2)C3)cc1OC (centres undefined)
  FPR = i
COc1ccc(C2CC(=O)C3=C(C2)NC(C)=C(C(=O)OC2CCCC2)C3c2ccncc2)cc1 (centres undefined)
  FPR = i
CC(C)Cn1cc(C(=O)N2CCCC2)c2c3ccccc3n(C)c2c1=O
  FPR = i
COC(=O)C1C(=O)C2=C(CC1C)NC(C)=C(C(=O)OCCOC(C)C)C2c1ccc(OC)cc1 (centres undefined)
  FPR = 76*
O=C(NC1CCCC1)C(c1cc2c(cc1[N+](=O)[O-])OCO2)N(CCO)Cc1ccccc1 (centres undefined)
  FPR = i
COc1ccc(OCC(=O)Oc2ccc3c4c(c(=O)oc3c2)CCC4)cc1
  FPR = i
CCOc1ccc(C2C(C(=O)OCCOC)=C(C)NC3=C2C(=O)C(C(=O)OC)C(C)C3)cc1OC (centres undefined)
  FPR = 9
CC1=C(C(=O)OC2CCCCC2)C(c2cccc([N+](=O)[O-])c2)C2=C(CC(C)(C)CC2=O)N1 (centres undefined)
  FPR = i
CCCCN(CCCC)S(=O)(=O)c1ccc(Cl)c([N+](=O)[O-])c1
  FPR = i

All compounds of this part, repeating the preview:
O=C(c1cnccn1)N(Cc1ccco1)C1(C(=O)NC2CCCCC2)CCCCC1
  FPR = i
N=c1c(C(=O)NCc2ccco2)cc2c(=O)n3ccccc3nc2n1C1CCCCC1
  FPR = i
O=C(c1cccc(O)c1)N1N=C2CCCCC2C1(O)C(F)(F)F (centres undefined)
  FPR = i
CCCOc1ccc(C2C(C(=O)OC3CCCCC3)=C(C)NC3=C2C(=O)CC(c2ccccc2)C3)cc1OC (centres undefined)
  FPR = i
COc1ccc(C2CC(=O)C3=C(C2)NC(C)=C(C(=O)OC2CCCC2)C3c2ccncc2)cc1 (centres undefined)
  FPR = i
CC(C)Cn1cc(C(=O)N2CCCC2)c2c3ccccc3n(C)c2c1=O
  FPR = i
COC(=O)C1C(=O)C2=C(CC1C)NC(C)=C(C(=O)OCCOC(C)C)C2c1ccc(OC)cc1 (centres undefined)
  FPR = 76*
O=C(NC1CCCC1)C(c1cc2c(cc1[N+](=O)[O-])OCO2)N(CCO)Cc1ccccc1 (centres undefined)
  FPR = i
COc1ccc(OCC(=O)Oc2ccc3c4c(c(=O)oc3c2)CCC4)cc1
  FPR = i
CCOc1ccc(C2C(C(=O)OCCOC)=C(C)NC3=C2C(=O)C(C(=O)OC)C(C)C3)cc1OC (centres undefined)
  FPR = 9
CC1=C(C(=O)OC2CCCCC2)C(c2cccc([N+](=O)[O-])c2)C2=C(CC(C)(C)CC2=O)N1 (centres undefined)
  FPR = i
CCCCN(CCCC)S(=O)(=O)c1ccc(Cl)c([N+](=O)[O-])c1
  FPR = i
COc1ccc(C2C3=C(CC(C)(C)CC3=O)Nc3nc(C(F)(F)F)nn32)cc1OC (centres undefined)
  FPR = i
CCOc1ccc(C2NC(=O)NC(C)=C2C(=O)OC2CCCCC2)cc1 (centres undefined)
  FPR = i
CCCOC(=O)C1=C(C)NC2=C(C(=O)C(C(=O)OC)C(C)C2)C1c1ccc(OC)cc1OC (centres undefined)
  FPR = 32

CCSc1sc(CC)cc1C1C(C#N)=C(N)N(c2ccccc2[N+](=O)[O-])C2=C1C(=O)CC(C)(C)C2 (centres undefined)
  FPR = i
COc1ccc2c(=O)c(Oc3ccccc3)c(C(F)(F)F)oc2c1
  FPR = i
COC(=O)C(Cc1ccccc1)NC(=O)C(NC(=O)OCc1ccccc1)C(C)C (centres undefined)
  FPR = i
CCCOc1ccc(C2NC(=O)NC(C)=C2C(=O)OCC(C)C)cc1 (centres undefined)
  FPR = i
CS(=O)C1CCCCC1(O)CSc1nc(-c2cccs2)cc(-c2ccccc2)c1C#N (centres undefined)
  FPR = i
COc1ccc(CCNC(=O)C(NS(=O)(=O)c2ccc3c(c2)CCN3C(C)=O)C(C)C)cc1OC (centres undefined)
  FPR = i
CCCC(=O)Oc1ccc2c(=O)c(Oc3ccccc3Br)c(C(F)(F)F)oc2c1
  FPR = 12
CCCC(=O)Oc1ccc2c(=O)c(Oc3cc(C)cc(C)c3)c(C(F)(F)F)oc2c1
  FPR = 1
COc1cc2c(C(=O)NCc3ccc(C)o3)cn(CC(C)C)c(=O)c2cc1OC
  FPR = i
CC(=O)OC1CCC2(C)C3CCC4(C)C(CC5OC6(CCC(C)CO6)C(C)C54)C3CC(=O)C2(O)C1 (centres undefined)
  FPR = 49
CCOc1cc(C2Nc3c(ccc4ccccc34)C3=C2CCCC3=O)cc(Br)c1O (centres undefined)
  FPR = i
COCCOC(=O)C1=C(C)NC2=C(C(=O)C(C(=O)OC)C(C)C2)C1c1cccc(O)c1 (centres undefined)
  FPR = 5
COc1ccc(N2C(=O)CSC23CCCCC3)cc1
  FPR = 28
CCOCCOC(=O)C1=C(C)NC2=C(C(=O)C(C(=O)OC)C(C)C2)C1c1cccc(Cl)c1 (centres undefined)
  FPR = 31
O=S(=O)(Nc1ccc(Cl)c(C(F)(F)F)c1)c1ccc(NS(=O)(=O)c2ccc3c(c2)OCCO3)cc1
  FPR = i

COc1cc2c(C(=O)NCCN3CCOCC3)cn(CC(C)C)c(=O)c2cc1OC
  FPR = i
CCNC(=O)N1c2ccc(OCC)cc2C(C)=CC1(C)C
  FPR = i
Cc1onc(-c2ccccc2Cl)c1C(=O)NC(C(=O)O)C(C)C (centres undefined)
  FPR = i
CN=C1CC(C)(C)CC(=O)/C1=C(\O)CCC(=O)OC
  FPR = i
CCC(C)(C(=O)NC1CCCC1)N(Cc1ccco1)C(=O)c1cnccn1 (centres undefined)
  FPR = i
CCCCN(CC)S(=O)(=O)c1ccc2[nH]c(=O)cc(C(=O)NC3CCCCC3C)c2c1 (centres undefined)
  FPR = i
COC(=O)C1=C(C)NC2=C(C(=O)C(C(=O)OC)C(C)C2)C1c1ccc2c(c1)OCO2 (centres undefined)
  FPR = i
COC(=O)C1C(=O)C2=C(CC1C)NC(C)=C(C(=O)OC1CCCCC1)C2c1cc(OC)ccc1OC (centres undefined)
  FPR = 5
O=C(CSc1c2c(nc3ccccc13)CCCC2)NC1CCCCC1
  FPR = i
COc1ccc2c(=O)c(Oc3cc(C)cc(C)c3)c(C(F)(F)F)oc2c1
  FPR = i
COc1ccc(S(=O)(=O)NC(CC(=O)O)C(C)C)cc1 (centres undefined)
  FPR = 36
CC(C)Cn1cc(C(=O)NCc2ccccn2)c2c3ccccc3n(C)c2c1=O
  FPR = i
CCOC(=O)NC(Nc1sc(C)c(CC)c1C#N)(C(=O)OCC)C(F)(F)F (centres undefined)
  FPR = i
CC(=O)C1C(c2cc([N+](=O)[O-])ccc2O)NC(=O)NC1(O)C(F)(F)F (centres undefined)
  FPR = 1
COc1ccc(C2C(C(=O)OC3CCCCC3)=C(C)NC3=C2C(=O)CCC3)c(OC)c1OC (centres undefined)
  FPR = i

CC1CC(C)CN(C(=O)c2cn(C3CCCC3)c(=O)c3c2c2ccccc2n3C)C1 (centres undefined)
  FPR = i
CC(C)Cn1cc(C(=O)NC2CCCCCC2)c2c3ccccc3n(C)c2c1=O
  FPR = i
Cc1sc2ncn(CC(=O)NC3CCCC(C)C3C)c(=O)c2c1S(=O)(=O)N1CCC(C)CC1 (centres undefined)
  FPR = i
CC(C)(C)c1cc(CCC(=O)OCC2(COC(=O)CCc3cc(C(C)(C)C)c(O)c(C(C)(C)C)c3)CC=CCC2)cc(C(C)(C)C)c1O
  FPR = i
CN1CCN(Cc2c(O)ccc3c(=O)c(Oc4ccc(C(C)(C)C)cc4)c(C(F)(F)F)oc23)CC1
  FPR = 49
CC1(C)CC(=O)C2=C(C1)Nc1nc3ccccc3n1C2c1ccc([N+](=O)[O-])cc1 (centres undefined)
  FPR = 21
N#CC1=C(SCC(=O)Nc2ccccc2)NC(O)(C(F)(F)F)C(C(=O)c2cccs2)C1c1ccccc1Cl (centres undefined)
  FPR = i
CC1=C(C(=O)OCC(C)C)C(c2ccc3c(c2)OCO3)NC(=O)N1 (centres undefined)
  FPR = i
O=C(CSc1nc2ccccc2c(=O)n1CC1CCC(C(=O)NCc2ccccc2)CC1)NC1CCCC1 (centres undefined)
  FPR = i
CC(C)C(Nc1ccc(C(F)(F)F)cc1[N+](=O)[O-])C(=O)O (centres undefined)
  FPR = 18
O=S(=O)(NC1CCCCC1Sc1ccccn1)c1ccc(Cl)cc1 (centres undefined)
  FPR = i
CCCCCn1c(SCC(=O)OCC)nc2cc(C(=O)NC3CCCCC3)ccc2c1=O
  FPR = i
O=C1CSC(c2cc3c(cc2[N+](=O)[O-])OCO3)N1C1CCCCC1 (centres undefined)
  FPR = 8
CC(=O)Oc1ccc2oc(=O)c3c(c2c1)CCCN3C(=O)CN1CCOCC1
  FPR = 6
COc1ccc(OC)c(NC(=O)C(C(C)C)N2C(=O)c3ccccc3C2=O)c1 (centres undefined)
  FPR = 28

O=C(O)CN(CC(=O)O)C1CCCCC1N(CC(=O)O)CC(=O)O (centres undefined)
  FPR = 1
CCCc1cc2c(=O)c(-c3cc4ccccc4o3)coc2cc1OC(C)=O
  FPR = 34
CN(Cc1ccccc1)Cc1c(O)ccc2c(=O)c(Oc3ccccc3Br)c(C(F)(F)F)oc12
  FPR = i
CCC(=O)N(CCC(Cc1ccccc1)c1ccc2c(c1)OCO2)Cc1ccc2c(c1)OCO2 (centres undefined)
  FPR = i
CCC1C/C(=C\c2ccc(OC)c(OC)c2)C(=O)/C(=C/c2ccc(OC)c(OC)c2)C1 (centres undefined)
  FPR = i
O=C1C2C3C=CC(C3C3=CCCC3)C2C(=O)N1c1cccc([N+](=O)[O-])c1 (centres undefined)
  FPR = i
Cc1ccc(NC(=O)CSc2c3c(nc4ccccc24)CCCC3)c(Br)c1
  FPR = i
CC1=CCC(c2nnc(C)o2)C(c2ccc([N+](=O)[O-])cc2)C1 (centres undefined)
  FPR = i
COc1cccc(C(=O)Oc2ccc(C3C4=C(CC(C)(C)CC4=O)OC4=C3C(=O)CC(C)(C)C4)cc2OC)c1
  FPR = i
COC(=O)C1=C(C)OC(N)=C(C#N)C1C1CCCCC1 (centres undefined)
  FPR = i
CC1=CC(C)C2(COC(=O)NC3CCCCC3)COC3(CCCC3)C1C2C (centres undefined)
  FPR = i
CC(=O)OCC12COC(c3ccc(OC(C)=O)cc3)C(C(C)=CC1C)C2C (centres undefined)
  FPR = 4
Cc1c(CCC(C)C)c(N2CCN(CCO)CC2)n2c(nc3ccccc32)c1C#N
  FPR = i
COCCNC(=O)Cn1cnc2sc(C)c(S(=O)(=O)N3CCC(C)CC3)c2c1=O
  FPR = i
COc1cccc(C(c2cc(C(C)(C)C)c(O)c(C(C)(C)C)c2)N2CCOCC2)c1OC (centres undefined)
  FPR = 5

Reformatted with tabs: entries from further up
mol	FPR
CC1=CCC(c2nnc(C)o2)C(c2ccc([N+](=O)[O-])cc2)C1 (centres undefined)	i
COc1cccc(C(=O)Oc2ccc(C3C4=C(CC(C)(C)CC4=O)OC4=C3C(=O)CC(C)(C)C4)cc2OC)c1	i

Next part
CCCOC(=O)c1c(NC(=O)C2CCCCC2C(=O)O)sc(C)c1-c1ccc(F)cc1 (centres undefined)
  FPR = 17
CC1=C(C(=O)OC2CCCCCC2)C(c2cccc([N+](=O)[O-])c2)C2=C(CCCC2=O)N1 (centres undefined)
  FPR = 7
CCOC(=O)c1c(NC(=O)C2C3C=CC(C3)C2C(=O)O)sc2c1CCCCCC2 (centres undefined)
  FPR = 16
CC(=O)N1CCc2cc(S(=O)(=O)NC3CCCC3)ccc21
  FPR = i
CCOC(=O)Cn1c2c(c(=N)c3c1CCC3)CCCC2
  FPR = 0
O=C1C2C3CC(C2C(=O)N1c1cccc(C(F)(F)F)c1)C1C(c2ccc(O)cc2)c2sc(=O)[nH]c2SC31 (centres undefined)
  FPR = 20
O=C(NC1(C(F)(F)F)C(=O)Nc2c1c(=O)[nH]c(=O)n2-c1ccc(F)cc1)c1ccccc1 (centres undefined)
  FPR = 18
CCN(CCCNC(=O)C(NS(=O)(=O)c1ccc2c(c1)CCN2C(C)=O)C(C)C)Cc1ccccc1 (centres undefined)
  FPR = i
CC1CC(C)CN(c2ccc(N3C(=O)CC(C)C3=O)cc2[N+](=O)[O-])C1 (centres undefined)
  FPR = i
CC(=O)Oc1ccc(C2C(C(=O)OC3CCCC3)=C(C)NC3=C2C(=O)CCC3)cc1 (centres undefined)
  FPR = 7
CCOC(=O)C1C(=O)C=C(c2ccc(OC)c(OC)c2)CC1c1ccc(OC)cc1 (centres undefined)
  FPR = i
COc1ccc(C(=O)COC(=O)c2cccc(N3C(=O)C4C5CCC(C5)C4C3=O)c2)cc1 (centres undefined)
  FPR = i
CC1=C(C(=O)OC2CCCCC2)C(c2cccc([N+](=O)[O-])c2)NC(=O)N1 (centres undefined)
  FPR = i
CC(=O)Nc1ccc(S(=O)(=O)NCC2CCC(C(=O)NC3CCCCCC3)CC2)cc1 (centres undefined)
  FPR = i
CCNc1nc(NCC)nc(N2n3c(nc4sc5c(c4c3=O)CCCC5)SCC2(O)C(C)(C)C)n1 (centres undefined)
  FPR = i

Cc1ccc(C(=O)Oc2cccc(N3C(=O)C4C5CCC(C5)C4C3=O)c2)cc1 (centres undefined)
  FPR = 10
CCCc1cc(=O)oc2c(C)c(OC)ccc12
  FPR = i
CCCCN(CC)CCNC(=O)c1cn(CC(C)C)c(=O)c2cc(OC)c(OC)cc12
  FPR = i
COc1cc(C2NC(=O)NC(C)=C2C(=O)OC2CCCC2)ccc1OCc1ccccc1 (centres undefined)
  FPR = i
O=C(NCCCN1CCCC1=O)C1CCC(CNS(=O)(=O)c2ccc(Cl)cc2)CC1 (centres undefined)
  FPR = i
CC(C)c1ccc(C2NC(=O)NC3=C2C(=O)CC(C)(C)C3)cc1 (centres undefined)
  FPR = 5
CC1CC(C)CN(c2ccc(N3C(=O)C4C5C=CC(C5)C4C3=O)cc2[N+](=O)[O-])C1 (centres undefined)
  FPR = i
CC(C)Cn1cc(C(=O)N2CCN(c3ccccc3F)CC2)c2c3ccccc3n(C)c2c1=O
  FPR = 1

The list is partial (hit frequency here may not be typical).
